Six1-Eya2 inh: Six1/Eya2 interaction inhibition | Q15475+O00167 | AlphaScreen GST-Six1/His-Eya2 binding, biochemical; active compounds read low; control for the full effect not named in the record | AID 651725 | activity change, % (test concentration not listed) | 360,000 compounds, 0.56% hits; in the data active = activity change below about -65%; inconclusive = about -30% to -65%; inactive = above about -30%; also: % is scaled to controls: 0 for no effect and ±100 for the full control effect
Target sequence (O00167 whole entry, looked up): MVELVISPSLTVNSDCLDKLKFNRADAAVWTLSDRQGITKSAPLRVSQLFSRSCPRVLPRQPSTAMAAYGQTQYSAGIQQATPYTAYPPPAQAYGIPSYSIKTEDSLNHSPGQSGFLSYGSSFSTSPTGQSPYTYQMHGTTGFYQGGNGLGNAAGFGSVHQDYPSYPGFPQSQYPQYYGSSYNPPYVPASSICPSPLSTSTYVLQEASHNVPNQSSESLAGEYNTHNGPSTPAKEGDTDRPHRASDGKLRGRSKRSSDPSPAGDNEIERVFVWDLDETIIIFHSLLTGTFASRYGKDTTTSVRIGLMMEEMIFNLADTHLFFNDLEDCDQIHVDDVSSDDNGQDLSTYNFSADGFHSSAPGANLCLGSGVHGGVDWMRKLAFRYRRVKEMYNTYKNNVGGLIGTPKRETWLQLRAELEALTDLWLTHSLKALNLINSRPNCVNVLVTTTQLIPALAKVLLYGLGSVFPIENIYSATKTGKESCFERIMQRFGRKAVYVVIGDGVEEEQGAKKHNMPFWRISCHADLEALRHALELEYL
Target sequence (Q15475 whole entry, looked up): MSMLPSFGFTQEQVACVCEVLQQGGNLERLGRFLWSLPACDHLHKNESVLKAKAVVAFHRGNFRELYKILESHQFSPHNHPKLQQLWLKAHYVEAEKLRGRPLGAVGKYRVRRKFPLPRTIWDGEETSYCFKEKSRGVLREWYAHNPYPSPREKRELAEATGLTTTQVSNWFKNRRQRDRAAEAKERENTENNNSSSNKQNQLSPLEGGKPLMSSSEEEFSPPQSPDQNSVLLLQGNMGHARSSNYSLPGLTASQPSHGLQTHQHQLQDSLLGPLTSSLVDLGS
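AlphaScreen luminescence read after one hour at 37 °C in darkness. Pin-transferred compounds met GST-Six1 and His-Eya2 protein (5X stock 250 nM/500 nM) plus glutathione donor and Ni-chelate acceptor beads (5X, 50 ug/mL).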
D2 PAM: positive allosteric modulators of human D2 dopamine receptor; P14416; DiscoveRx D2 beta-arrestin cells, luminescence, 90 min; 100% = 57 uM dopamine signal; potentiation, % (test concentration not listed); 360,000 compounds, 0.23% hits; active = potentiation of 50% or more; inconclusive = 30% to 50%; inactive = 30% or less;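 also: compound concentration not given in the record; tested on top of an EC20 dose of dopamine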
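PathHunter D2 cells, attached overnight at 37 deg C, received compound in DMSO plus dopamine at EC20 (50 nM final) for 90 min at 37 deg C. Beta-arrestin recruitment was read as luminescence after 1 h with detection reagent at ambient temperature.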
TRPML1 ag: activates the human TRPML1 channel | Q9GZU1 | TRPML1-expressing cells, Ca2+ dye fluorescence, FDSS; host cell line not named in the record; reference of the full effect not given here | activation, % (test concentration not listed) | 410,000 compounds, 0.12% hits; in the data active = activation above about 50%; inconclusive = about 30% to 50%; inactive = below about 30%; also: 0% is about no effect; the text of the record puts the active cut at 80%
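Calcium fluorescence on an FDSS kinetic reader gave the read-out. Tet-induced TRPML1-DL cells were plated overnight, dye-loaded (Ca8 with quencher, 45-90 min, room temperature, dark), then read 110 s after compound addition, and again 110 s after 4uM final 54-4 (EC80).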
TRPV1 PAM: enhances activation of the human vanilloid receptor TRPV1 | TRPV1-expressing cells, Fluo-8 calcium influx, capsaicin EC20 potentiation; host cell line not named in the record; control for the full effect not named in the record | potentiation, % at 8.33 µM | Q8NER1 | 320,000 compounds, 0.02% hits; active means potentiation above 80%; inconclusive means 30% to 80%; inactive means below 30%; also: 0% is about no effect
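Cells expressing TRPV1 were dye-loaded with Fluo-8 and read kinetically: 10 s baseline, 3 min after compound (agonist portion), then 2 min after EC20 capsaicin (allosteric enhancer portion). Calcium-bound dye fluorescence at 480/520 nm.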
TRPML1 blocker: human mucolipin-1 channel inhibition; Q9GZU1; TRPML1-inducible cells, Ca2+ dye fluorescence, FDSS; active compounds read low; inhibition of EC80 agonist-evoked calcium signal; activity change, negative = inhibition, % (no concentration beside the values); 390,000 compounds, 0.02% hits; in the data active means activity change below about -50%; inconclusive means about -30% to -50%; inactive means above about -30%;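 also: stimulus is agonist 54-4 at its EC80 concentration; % is scaled to controls: 0 for no effect and ±100 for the full control effect; compound concentration not given in the record; the text of the record puts the active cut at -80%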
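TRPML1-DL cells, Tet-induced overnight (~16 h, 37 °C) at 1,500 cells/well, were loaded with Ca8 no-wash dye plus quencher for 45-90 min at room temperature. Compounds were pinned during FDSS kinetic reading; agonist 54-4 at EC80 (4 uM final) then added.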
CtBP-E1A blk: blocks the CtBP interaction with E1A | AlphaScreen GST-E1A/His-CtBP binding, 1536-well; active compounds read low; control for the full effect not named in the record | activity change, % (test concentration not listed) | 340,000 compounds, 0.49% hits; in the data active means activity change below about -65%; inconclusive means about -30% to -65%; inactive means above about -30%; also: % is scaled to controls: 0 for no effect and ±100 for the full control effect
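Steps: dispense buffer (Tris pH 8.0, NaCl 300 mM, TCEP 1 mM, BSA, Tween 20); add 5X protein mix (GST-E1A, His-CtBP, 125 nM each); pin 23 nL compound; 2 h at 37 °C, dark; add 5X beads (50 ug/mL); 1 h; read.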
* hit, by the source's call; ? = inconclusive; nt = no result given.

Short keys – A = Six1-Eya2 inh; B = D2 PAM; C = TRPML1 ag; D = TRPV1 PAM; E = TRPML1 blocker; F = CtBP-E1A blk
Cc1[nH]c2ccccc2c1C(=O)CN1CCCCC1C (configuration not stated)
  A: -5; B: -33; C: -0.4; D: -5; E: 1; F: -2

O=C(NCC(O)c1nc2ccccc2[nH]1)c1ccc(Br)cc1 (configuration not stated)
  A: 1; B: -5; C: -0.7; D: nt; E: nt; F: 5

CN(C)c1nc2sc3c(c2c(=O)n1C)CC(C)(C)OC3
  A: 2; B: -4; C: -0.1; D: -4; E: 9; F: -9

O=C(NNC(=S)Nc1ccccc1)c1ccc(O)cc1
  A: 2; B: -24; C: -0.5; D: 0; E: -6; F: nt

O=C(CNC(=O)c1ccc(Cl)cc1)Nc1ccccc1C(F)(F)F
  A: 11; B: -8; C: -0.7; D: 3; E: 17; F: 6

COC(=O)[C@H](Cc1c[nH]c2ccccc12)NC(=O)NCc1ccc(OC)c(OC)c1
  A: 3; B: -9; C: 1.0; D: 0; E: -20; F: nt

O=C(COC(=O)c1cccnc1Cl)Nc1ccc2c(c1)OCO2
  A: -1; B: -8; C: -0.6; D: -6; E: -3; F: 2

COc1ccccc1CNC(=O)Cc1csc(NC(=O)Nc2ccccc2OC)n1
  A: -10; B: -2; C: 0.4; D: -3; E: -1; F: -3

O=C(c1ccc(S(=O)(=O)N2CCOCC2)cc1)N(c1ccccn1)C1CCCCC1
  A: 19; B: -4; C: -0.6; D: -1; E: 2; F: 3

O=C(COC(=O)C1CCN(S(=O)(=O)c2cccc3cccnc23)CC1)c1ccccc1
  A: -5; B: -1; C: 1.1; D: 7; E: 30; F: 0

O=C(NCC1CCCO1)c1cccc2ccccc12 (configuration not stated)
  A: 6; B: -1; C: -0.1; D: -1; E: 4; F: 6

CCN1CCN(C(=O)CCS(=O)(=O)c2cc3c(cc2Cl)NC(=O)CO3)CC1
  A: 2; B: -1; C: 0.5; D: 4; E: -12; F: 3

CN(C)c1ccc(CNC(=O)C2(C)Cc3c(-c4ccccc4)ccnc3O2)cc1 (configuration not stated)
  A: ?; B: -5; C: -1.3; D: nt; E: nt; F: ?

CC(=O)Nc1ccc(-c2ccnc3c2CC(C(=O)Nc2cccc(N(C)C)c2)O3)cc1 (configuration not stated)
  A: -11; B: -8; C: -0.8; D: nt; E: 47; F: -18

COc1ccc(C(c2c(C)[nH]n(C(N)=S)c2=O)C(C#N)C#N)cc1 (configuration not stated)
  A: -6; B: -2; C: -1.0; D: -3; E: -7; F: -15

Cc1ccc(C)c(NC(=O)CSc2nnc(NC(=O)C3CC3)s2)c1
  A: 0; B: -7; C: 0.8; D: 1; E: 13; F: 16

Nc1nc(SCC(=O)N2CCN(c3ccccc3)CC2)n[nH]1
  A: -1; B: -4; C: -0.4; D: 7; E: 39; F: -1

CC(=NNc1ccccc1)C(C)=NNc1ccccc1
  A: 3; B: 3; C: 0.9; D: nt; E: -12; F: 4

O=C(Cn1cc([N+](=O)[O-])cn1)Nc1nccs1
  A: 3; B: -11; C: -0.6; D: 10; E: -10; F: nt

CN1CCN(C2Cc3ccccc3Sc3cc(C(F)(F)F)ccc32)CC1 (configuration not stated)
  A: -12; B: -3; C: 1.5; D: nt; E: 31; F: -4

O=C(Nc1ccc2c(c1)OCO2)c1cnn2c(C(F)(F)F)cc(-c3ccco3)nc12
  A: -23; B: 5; C: 1.2; D: -10; E: -3; F: -16

COc1cccc(C2c3[nH]c4ccccc4c3CCN2C(=O)Cn2cncn2)c1OC (configuration not stated)
  A: 9; B: -11; C: 0.2; D: -6; E: -15; F: 2

CN(Cc1nc(-c2ccc(C(F)(F)F)cc2)no1)C1CCOCC1
  A: 1; B: 2; C: -0.2; D: -13; E: 0; F: 8

Cc1ccc(NC2=NC(c3ccc(C)cc3)n3c(nc(C)cc3=O)N2)cc1 (configuration not stated)
  A: 0; B: -17; C: 0.0; D: 3; E: 3; F: 0

COc1ccc(-c2cn(Cc3ccc(C(=O)NCc4ccc(C)cc4)cc3)c(C(C)N)n2)cc1 (configuration not stated)
  A: -15; B: -12; C: -0.5; D: -13; E: -10; F: -12

O=C(Nc1ccccc1)C1=C[C@@H](c2ccc(C(F)(F)F)cc2)C[C@@H](OCc2ccc(CO)cc2)O1
  A: -2; B: -11; C: 0.3; D: -12; E: 77; F: -6

COC(=O)[C@H](Cc1ccccc1)NC(=O)C1(OC(C)=O)CC(OC(C)=O)C(OC(C)=O)C(OC(C)=O)C1 (some centres not stated)
  A: -4; B: -2; C: 1.8; D: 2; E: -6; F: -19

Cc1ccc(S(=O)(=O)N2CCCC(C(=O)Nc3ccc(NC(=O)c4ccccn4)cc3)C2)cc1 (configuration not stated)
  A: 19; B: -3; C: ?; D: -1; E: 2; F: 6

COc1ccc(CCNC(=O)Cn2cnc3c(nnn3Cc3ccccc3F)c2=O)cc1OC
  A: -8; B: -4; C: -0.3; D: 1; E: -5; F: -4

COc1ccc(NC(=O)C2CC(c3ccc(OC)c(OC)c3)=NO2)cc1OC (configuration not stated)
  A: -3; B: -3; C: 0.0; D: nt; E: 11; F: -1

CC(OC(=O)Cn1[nH]c(=O)c2ccccc2c1=O)C(=O)Nc1ccc(F)cc1Cl (configuration not stated)
  A: 0; B: -18; C: 0.9; D: 8; E: 2; F: 2

CCCCN(CC)Cc1c(O)ccc2c3c(c(=O)oc12)CCC3
  A: 2; B: -13; C: 0.9; D: -7; E: -2; F: 5

Fc1ccccc1C(c1nnnn1Cc1ccc2c(c1)OCO2)N1CCN(Cc2ccccc2)CC1 (configuration not stated)
  A: -18; B: -32; C: 1.8; D: 7; E: -11; F: -11

Cc1nc2ccc([N+](=O)[O-])cc2c(=O)n1Cc1ccc(Br)cc1
  A: -1; B: 7; C: -0.7; D: -5; E: 8; F: -4

Cn1c(SCC(=O)NC(=O)NCc2ccccc2)nnc1C(F)(F)F
  A: -4; B: -3; C: 0.5; D: -12; E: -4; F: 0

CCCCN(C(=O)c1ccc(C)cc1)c1c(N)n(CCC)c(=O)[nH]c1=O
  A: -1; B: -13; C: -0.5; D: 9; E: -15; F: 37

CC(NC(=O)c1ccco1)c1ccc2c(c1)OCCO2 (configuration not stated)
  A: 0; B: -9; C: -0.8; D: -10; E: -7; F: 5

CN1CCN(S(=O)(=O)c2ccc(NC(=S)NC(=O)C3CC3)cc2)CC1
  A: -3; B: -12; C: 0.2; D: 6; E: -2; F: 2

Cc1cc(C)nc(N2CCC(C(=O)NNC(=O)c3ccccc3)CC2)n1
  A: 3; B: -5; C: 0.4; D: 20; E: 4; F: -2

CCCNS(=O)(=O)c1ccc(CCC(=O)Nc2ccc3c(c2)OCCO3)cc1
  A: 2; B: 3; C: 0.2; D: 9; E: 20; F: 5

O=C(CN1CCOCC1)Nc1ccc(OC(F)(F)F)cc1
  A: 3; B: -5; C: -0.7; D: 4; E: -13; F: nt

CCCn1ncc(/C=N/O)c1C
  A: 3; B: -5; C: 6.9; D: 28; E: 18; F: 1

COc1cc(OC)cc(C(=O)Nc2cc(-c3cn4cccnc4n3)ccc2C)c1
  A: -15; B: -5; C: -0.4; D: 8; E: 4; F: -2

Cc1ccc(C(=O)c2ccc(C)cc2)cc1
  A: 10; B: -2; C: -0.9; D: 5; E: -2; F: 22

CC1(CCC(=O)O)C(=O)CCC2C1CCC1(C)C2CCC1(C)O (configuration not stated)
  A: -11; B: -1; C: 0.5; D: nt; E: -10; F: 7

COc1ccc(-c2cc(C(=O)N3CCN(C(=O)c4ccccc4F)CC3)[nH]n2)cc1
  A: 0; B: -2; C: 0.3; D: -4; E: -11; F: nt

COCc1[nH]nc2c1C(c1cc(OC)c(O)c(OC)c1)C(C#N)=C(N)O2 (configuration not stated)
  A: 21; B: 0; C: 1.1; D: 2; E: -9; F: 1

Cc1cc(C(=O)NCc2ccccc2Cl)c2ccccc2n1
  A: 0; B: 0; C: -0.6; D: 22; E: -5; F: 1

Cc1cnc(CN(C)Cc2nc(Cc3cccc(C(F)(F)F)c3)no2)[nH]1
  A: 0; B: -15; C: 0.0; D: -13; E: -16; F: 1

COC(=O)c1ccc(NC(=O)COc2ccc([N+](=O)[O-])cc2)cc1
  A: 2; B: -15; C: -0.8; D: -4; E: 37; F: 13

CCOC(=O)CNC(=O)CSc1nc2cccnc2n1Cc1ccccc1
  A: -2; B: 2; C: 3.5; D: -8; E: 3; F: 2

CC(C#N)N1CCN(S(=O)(=O)c2ccc3c(c2)CCC3)CC1 (configuration not stated)
  A: 5; B: 6; C: -0.9; D: -7; E: -1; F: nt

Cc1nc([N+](=O)[O-])c(Br)n1Cc1ccc(Cl)c(Cl)c1
  A: 5; B: -31; C: 0.0; D: ?; E: -5; F: nt

CN1CCN(C(=O)c2ccc3c(c2)OCCO3)CC1
  A: 8; B: -14; C: 1.0; D: 12; E: 17; F: 6

CN(CC(=O)Nc1ccc(F)cc1)C(=O)c1cc([N+](=O)[O-])ccc1N1CCOCC1
  A: 2; B: -5; C: 0.4; D: 4; E: -9; F: -24

COc1ccc(-c2cc(NC=O)c3ncc(-c4cc(OC)c(OC)c(OC)c4)n3c2)cc1
  A: ?; B: -15; C: 0.1; D: nt; E: nt; F: -24

Cc1cc(-c2cc(C(=O)NCc3ccccc3)on2)nc(NCC2CC2)n1
  A: 9; B: -8; C: 2.2; D: -15; E: -4; F: -3

CC(C)(CO)Nc1ccc([N+](=O)[O-])cc1[N+](=O)[O-]
  A: -1; B: 2; C: -0.6; D: 9; E: -18; F: 5

O=C(CSc1ncccc1-c1nc2ccccc2[nH]1)N1CCN(c2ccccc2F)CC1
  A: -6; B: -5; C: 1.9; D: 3; E: 31; F: 2

An excerpt from above in order of number of heavy atoms, rising.
Short keys – A = Six1-Eya2 inh; B = D2 PAM; C = TRPML1 ag; D = TRPV1 PAM; E = TRPML1 blocker; F = CtBP-E1A blk
CC(C#N)N1CCN(S(=O)(=O)c2ccc3c(c2)CCC3)CC1 (configuration not stated)
  A: 5; B: 6; C: -0.9; D: -7; E: -1; F: nt

COCc1[nH]nc2c1C(c1cc(OC)c(O)c(OC)c1)C(C#N)=C(N)O2 (configuration not stated)
  A: 21; B: 0; C: 1.1; D: 2; E: -9; F: 1

COc1ccc(-c2cc(NC=O)c3ncc(-c4cc(OC)c(OC)c(OC)c4)n3c2)cc1
  A: ?; B: -15; C: 0.1; D: nt; E: nt; F: -24

In the list so far, these have a cyano group:
Short keys – A = Six1-Eya2 inh; B = D2 PAM; C = TRPML1 ag; D = TRPV1 PAM; E = TRPML1 blocker; F = CtBP-E1A blk
COc1ccc(C(c2c(C)[nH]n(C(N)=S)c2=O)C(C#N)C#N)cc1 (configuration not stated)
  A: -6; B: -2; C: -1.0; D: -3; E: -7; F: -15

COCc1[nH]nc2c1C(c1cc(OC)c(O)c(OC)c1)C(C#N)=C(N)O2 (configuration not stated)
  A: 21; B: 0; C: 1.1; D: 2; E: -9; F: 1

CC(C#N)N1CCN(S(=O)(=O)c2ccc3c(c2)CCC3)CC1 (configuration not stated)
  A: 5; B: 6; C: -0.9; D: -7; E: -1; F: nt

From PubChem BioAssay
